# RGS16-Gao HTS – regulators of human RGS16-Galphao interaction | O15492+P09471 | bead-based flow cytometry RGS16-Galphao binding, fluorescence; actives lie on both sides | binding response (% of control), % at 10 µM | 220,000 tested, 0.38% active | AID 1441;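 active = below 25% or above 175%, edge rows of some plates excepted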;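 note: Galphao activated by GDP with aluminum fluoride before binding; 100% = wells without compound and 0% = beads without RGS; some results beyond the cut were filed as inactive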
# Target sequence (O15492 whole entry, looked up): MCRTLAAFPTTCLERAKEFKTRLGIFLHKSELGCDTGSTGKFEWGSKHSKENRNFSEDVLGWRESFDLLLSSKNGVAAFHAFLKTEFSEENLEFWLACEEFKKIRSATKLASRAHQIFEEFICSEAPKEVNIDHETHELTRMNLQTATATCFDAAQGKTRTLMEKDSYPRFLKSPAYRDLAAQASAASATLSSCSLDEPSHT
# Target sequence (P09471 whole entry, looked up): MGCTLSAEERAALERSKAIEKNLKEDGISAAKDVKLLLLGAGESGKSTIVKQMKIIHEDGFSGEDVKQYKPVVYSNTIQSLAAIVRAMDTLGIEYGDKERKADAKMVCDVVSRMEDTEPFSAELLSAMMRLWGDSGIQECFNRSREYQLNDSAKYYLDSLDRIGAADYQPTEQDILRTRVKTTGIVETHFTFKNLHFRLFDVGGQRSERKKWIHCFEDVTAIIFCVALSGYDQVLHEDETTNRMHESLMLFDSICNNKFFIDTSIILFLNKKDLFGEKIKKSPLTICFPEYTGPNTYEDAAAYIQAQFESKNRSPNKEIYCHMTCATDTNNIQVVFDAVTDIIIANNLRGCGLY
# PKD1 inh – PKD1 (human) kinase inhibition. 200,000 tested, 0.056% active. inhibition, %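 (about 10 µM by stock and volumes)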. PKD1 kinase fluorescence polarization assay. Q15139;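 active = inhibition of 50% or more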;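 note: controls were vehicle for no effect and a reference inhibitor for full effect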
# HSV augment – HSV replication enhancement; 220,000 tested, 0.005% active; AID 1956; maximum fold increase; HSV replication augmentation in cells, fold increase;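 active = peak rise of 1.5-fold or more in the series; tested in PC3 cells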;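 note: first round at 10 µM; read as green reporter fluorescence; hits show the peak of a series up to 25 µM; 1 = signal of infected wells without compound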
# INS promoter inh – TRM-6 insulin promoter activity inhibition; TRM-6 cells (human fetal islet line), insulin promoter-eGFP reporter, imaging; reporter expression induced with tamoxifen; inhibition, % at 2 µM; 130,000 tested, 0.9% active;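 active = inhibition above the mean plus 3 SD, with well images judged a real hit on visual review, cut at about 60% in these data, passing the limit was not always enough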
# GALR2 agonist – GALR2 (human) receptor agonism | O43603 | GALR2-expressing cells, agonist activation read-out | activation, %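 (tested at 5 µM)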 | 140,000 tested, 0.48% active;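 active = above mean plus 3 SD of all compounds, about 5% in these data, not always enough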;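 note: 0% = vehicle buffer wells and 100% = reference agonist at full effect; tested in CHO reporter cells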
# Target sequence (O43603 whole entry, looked up): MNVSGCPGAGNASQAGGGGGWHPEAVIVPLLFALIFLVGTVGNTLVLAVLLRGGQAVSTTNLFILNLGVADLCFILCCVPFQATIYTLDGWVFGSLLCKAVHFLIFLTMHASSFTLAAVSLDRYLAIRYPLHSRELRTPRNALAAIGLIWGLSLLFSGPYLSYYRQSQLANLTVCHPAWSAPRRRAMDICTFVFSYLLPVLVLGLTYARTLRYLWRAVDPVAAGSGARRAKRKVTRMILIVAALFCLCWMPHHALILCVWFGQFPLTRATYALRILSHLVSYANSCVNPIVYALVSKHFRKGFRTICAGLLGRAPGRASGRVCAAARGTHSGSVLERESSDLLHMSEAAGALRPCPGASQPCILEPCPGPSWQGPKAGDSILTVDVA
# INS promoter inh cell count – further read-out of INS promoter inh, marked with its call; normalized cell count, %; measured here: cell count, toxicity; reference of the scale not given here;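 cells exposed to compound for 48 h; stained nuclei by imaging scaled within each plate; lower means fewer cells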
# HSV augment primary fold – also measured in HSV augment; calls as there; fold increase; compound at 10 µM; measured here: primary screen fold increase 10 uM; tested in PC3 cells;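 GFP signal in the first replicate; 1 = infected wells without compound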
# * marks the source's active call; other numbers are inactive results; i = inactive; nt = no result given.
No.	Compound	HSV augment primary fold	INS promoter inh cell count	INS promoter inh	HSV augment	RGS16-Gao HTS	GALR2 agonist	PKD1 inh
1	CC(C)Sc1nc2c(c(=O)n(C)c(=O)n2C)n1Cc1ccc(Cl)cc1	0.96	81	-34	i	96	1.5	-6
2	CCCNS(=O)(=O)c1ccc2c(c1)CCCN2C(C)=O	0.89	nt	nt	i	113	-2.7	-3
3	COc1cc(CNc2ccccc2Oc2cc(=O)n(C)c(=O)n2C)cc(OC)c1OC	1	56	-24	i	95	-1.4	-3
4	Cc1ccc(CSCC(=O)N/N=C/c2ccc(OCC(=O)Nc3ccc(C)cc3)cc2)cc1	nt	111	-13	nt	102	-0.3	0
5	CCCC(CCC(=O)Nc1cc([N+](=O)[O-])ccc1O)C(=O)O (centres undefined)	1	118	50	i	152	nt	-5
6	O=C(CCc1ccc(S(=O)(=O)N2CCOCC2)cc1)Nc1ccc2ccccc2c1	0.91	107	-39	i	91	-1.9	-5
7	C=CCSC1=C(C#N)C(c2ccccc2)CC(=O)N1 (centres undefined)	1	80	0	i	102	-0.7	0
8	Cc1c(/C(O)=C2\C(=O)C(=O)N(CCCN(C)C)C2c2ccccc2)cnn1-c1ccccc1 (centres undefined)	1.1	nt	nt	i	109	nt	5
9	CCc1ccc(C2C(C#N)=C(N)C(C#N)(C#N)C3=CCC(C(C)(C)C)CC32)cc1 (centres undefined)	0.81	117	50	i	50	-0.5	1
10	Cc1ccc(Nc2nc(/N=C/N(C)C)n[nH]2)cc1C	0.89	nt	nt	i	99	nt	-6
11	CC(=O)c1cc2c(=O)c3ccccc3oc2nc1C	1.1	118	-14	i	nt	1.8	-5
12	Cc1ccc(C(=O)NNC(=O)c2ccc(SCC3CCCO3)c([N+](=O)[O-])c2)cc1 (centres undefined)	1	48	0	i	101	-0.4	1
13	COc1ccc(CN2C(=O)c3cccnc3C2Nc2ccc(C)cc2)cc1 (centres undefined)	0.98	151	-29	i	103	-2.1	-8
14	CC(C)C(=O)Nc1ccc(Br)cc1Cl	1.1	nt	nt	i	99	nt	3
15	Cc1c(C(=O)O)cnc2cc(-c3ccc(Cl)cc3)nn12	1	nt	nt	i	100	-0.8	-11
16	CC(C(=O)Nc1nccs1)c1ccc([N+](=O)[O-])cc1 (centres undefined)	1	71	-18	i	100	nt	-2
17	CCn1c(COc2ccc(=O)n(-c3ccccc3)n2)nnc1SCC(=O)OC	1.1	nt	nt	i	99	nt	4
18	CS(=O)(=O)N(CC(=O)Nc1ccccc1Cl)c1ccc(Cl)cc1	0.94	96	14	i	104	nt	-2
19	CN(C)S(=O)(=O)c1ccc(S(=O)(=O)N2CCCC2)cc1	0.84	nt	nt	i	99	-1.8	-3
20	COc1ccc(CCCc2nnc(SCC(=O)Nc3ccc(C)c(C)c3)o2)cc1	0.95	82	-28	i	108	-1.2	-7
21	Cc1nc(NC(=O)CSc2nnnn2C)sc1C	1	80	59	i	101	-3.0	-1
22	Cc1ccc(-c2csc3ncnc(Sc4nnc(CN5CCCCCC5=O)o4)c23)cc1	0.54	nt	nt	i	100	6.8	7
23	CCc1nc2c(cnn2-c2ccc(Cl)cc2)c(=O)n1-c1ccc2c(c1)OCCO2	0.97	77	51	i	101	-0.3	-8
24	CC1(C)Cc2c(sc(NC(=O)c3ccco3)c2C#N)CO1	0.91	109	6	i	-105*	-0.4	7
25	CCC1=C(OC(=O)N(CC)CC)N2C(=O)OC(=NCCc3c[nH]c4ccccc34)[C@]2(C)[C@H]2C1=CC[C@H]1C(=O)NC(=O)[C@H]12	0.83	nt	nt	i	82	nt	nt
26	CCN(CC)C(=O)c1sc(NC(=O)C(Sc2ccccc2)c2ccccc2)c(C(=O)OC(C)C)c1C (centres undefined)	0.94	111	-4	i	98	0.5	-12
27	CC1CCN(c2ccccc2N)CC1	0.87	52	42	i	167	-1.1	-14
28	O=C(COC(=O)c1ccccc1SCC(=O)NC1CCCCC1)NC1CCCCC1	0.94	95	15	i	87	-1.1	-6
29	CCOC(=O)c1ccc(NC(=O)N2CCN(c3cccc(OC)c3)CC2)cc1	1	nt	nt	i	103	nt	-7
30	Cc1ccc(C(C)C)c(OCC(O)CN2CC(C)OC(C)C2)c1 (centres undefined)	0.9	96	-60	i	100	-1.6	30
31	Cc1cccc(-n2cnc(C(=O)N/N=C\c3ccc(Br)cc3)c2)n1	0.99	97	0	i	99	-2.9	-3
32	O=C(O)CCC(=O)N1CN2CN(C(=O)CCC(=O)O)CC([N+](=O)[O-])(C2)C1	0.98	nt	nt	i	94	nt	nt
33	CC(C)C(NS(=O)(=O)c1cccc2nsnc12)C(=O)NCCC1=CCCCC1 (centres undefined)	1.1	nt	nt	i	102	-2.2	-3
34	COC(=O)[C@@H]1C[C@@]2(O)[C@H](O)[C@H](O)[C@H](O)C[C@H]2N1C/C=C/c1ccccc1	0.94	nt	nt	i	107	nt	nt
35	CC(=O)C1=C(O)CC(c2ccccc2)CC1=NCCc1ccccc1 (centres undefined)	0.98	74	-8	i	96	nt	-1
36	CCOc1cc2c(cc1OC)C(c1cccc([N+](=O)[O-])c1)NCC2 (centres undefined)	1.1	108	11	i	102	nt	0
37	O=C(NCC(c1ccco1)N1CCN(c2ccc(F)cc2)CC1)OCc1ccccc1 (centres undefined)	1	nt	nt	i	98	-0.1	5
38	CCOC(=O)c1c(C)[nH]c(N=Nc2ccccc2C)c1C	0.94	103	29	i	102	-5.1	6
39	O=C(O)C1C2CC3C(OC(=O)C31)C2Cl (centres undefined)	0.99	90	-19	i	115	-0.9	3
40	COc1ccc(Nc2ncnc3ccccc23)cc1	0.99	91	34	i	105	-1.0	-8
41	Cc1ccc(-c2nc(N)c3c(-c4ccc(C)cc4)nn(C(C)(C)C)c3n2)cc1	0.99	94	25	i	101	-1.4	-9
42	O=C(Cn1cncn1)c1ccc(F)cc1F	1	137	-13	i	62	-1.2	2
43	CCCCOC(=O)c1ccc(NC(=O)c2cnccn2)cc1	0.86	128	48	i	101	-2.8	-5
44	Cc1nnc(SCC(=O)NC(C)(C)C)n1NCc1ccc(Cl)cc1	0.95	nt	nt	i	110	nt	-3
45	CCOC(=O)NC1=NCC(C)S1 (centres undefined)	1.2	nt	nt	i	96	nt	nt
46	CCOc1ncccc1C(=O)OCC(=O)c1ccc(C)c(C)c1	1.1	nt	nt	i	94	nt	-8
47	O=C(O)c1ccccc1S(=O)(=O)c1ccccc1CO	0.93	131	0	i	102	-1.2	-6
48	COC(=O)c1cc(C(=O)Nc2ccc(Cl)cn2)cc([N+](=O)[O-])c1	0.89	100	0	i	104	nt	0
49	COc1ncccc1-c1nnn(-c2ccc(Cl)nc2)n1	0.66	nt	nt	i	86	nt	-3
50	CN(C)CCNC(=O)C(C(=O)c1ccc(F)cc1)n1ccccc1=O (centres undefined)	0.71	89	-114	i	98	-4.0	9
51	CCOC(=O)c1[nH]c(C)c(C(=O)c2cc(F)ccc2F)c1C	nt	15*	70*	nt	99	-1.8	0
52	Cc1ccnc(SCC(=O)c2ccc([N+](=O)[O-])cc2)n1	0.98	nt	nt	i	106	-0.1	5
53	CC(C)NC(=O)CN1CCC(O)(c2ccccc2)CC1	0.83	nt	nt	i	103	-2.0	-7
54	CCOc1cc2[nH]c(=O)n(CCCC(=O)N(C)Cc3ccccc3)c(=O)c2cc1OCC	0.9	nt	nt	i	106	nt	-6
55	O=C(O)CC/C(=N/Nc1ccc([N+](=O)[O-])cc1)C(=O)O	0.93	nt	nt	i	100	nt	nt
56	c1ccc(Cn2cc(CN3CCCO3)c(-c3ccc4c(c3)OCO4)n2)cc1	1	nt	nt	i	96	nt	2

# 11 of the compounds above, with values under each structure.
# Order of results: HSV augment primary fold	INS promoter inh cell count	INS promoter inh	HSV augment	RGS16-Gao HTS	GALR2 agonist	PKD1 inh
[46] CCOc1ncccc1C(=O)OCC(=O)c1ccc(C)c(C)c1
    1.1	nt	nt	i	94	nt	-8
[47] O=C(O)c1ccccc1S(=O)(=O)c1ccccc1CO
    0.93	131	0	i	102	-1.2	-6
[48] COC(=O)c1cc(C(=O)Nc2ccc(Cl)cn2)cc([N+](=O)[O-])c1
    0.89	100	0	i	104	nt	0
[49] COc1ncccc1-c1nnn(-c2ccc(Cl)nc2)n1
    0.66	nt	nt	i	86	nt	-3
[50] CN(C)CCNC(=O)C(C(=O)c1ccc(F)cc1)n1ccccc1=O (centres undefined)
    0.71	89	-114	i	98	-4.0	9
[51] CCOC(=O)c1[nH]c(C)c(C(=O)c2cc(F)ccc2F)c1C
    nt	15*	70*	nt	99	-1.8	0
[52] Cc1ccnc(SCC(=O)c2ccc([N+](=O)[O-])cc2)n1
    0.98	nt	nt	i	106	-0.1	5
[53] CC(C)NC(=O)CN1CCC(O)(c2ccccc2)CC1
    0.83	nt	nt	i	103	-2.0	-7
[54] CCOc1cc2[nH]c(=O)n(CCCC(=O)N(C)Cc3ccccc3)c(=O)c2cc1OCC
    0.9	nt	nt	i	106	nt	-6
[55] O=C(O)CC/C(=N/Nc1ccc([N+](=O)[O-])cc1)C(=O)O
    0.93	nt	nt	i	100	nt	nt
[56] c1ccc(Cn2cc(CN3CCCO3)c(-c3ccc4c(c3)OCO4)n2)cc1
    1	nt	nt	i	96	nt	2

# More compounds
No.	Compound	HSV augment primary fold	INS promoter inh cell count	INS promoter inh	HSV augment	RGS16-Gao HTS	GALR2 agonist	PKD1 inh
57	CC(C)(C)c1ccc(S(=O)(=O)N2CCN(CCC#N)CC2)cc1	0.92	117	-71	i	121	-1.2	-12
58	CSc1sc(C(=O)NC(=O)NCc2cccnc2)c(C)c1-c1ccon1	0.95	nt	nt	i	108	nt	nt
59	NC(CO)C12CC3CC(CC(C3)C1)C2 (centres undefined)	1.1	nt	nt	i	99	nt	nt
60	Cn1c(=NC(=O)C(C)(C)C)sc2cccc(F)c21	1.1	nt	nt	i	99	nt	nt
61	O=C(c1cccs1)N(C(=O)c1cccs1)c1ccccn1	0.47	100	11	i	96	-2.4	-9
62	COc1ccc(C2C3=C(CC(C)(C)CC3=O)N(C)C3=C2C(=O)CC(C)(C)C3)cc1	0.8	113	7	i	102	nt	3
63	Cc1ccc(NC(=S)N2CCCC(c3nc4ccccc4[nH]3)C2)cc1 (centres undefined)	1.1	71	-60	i	100	nt	1
64	O=C(NCCN1CCCCC1)c1cc(OCC(F)(F)F)ccc1OCC(F)(F)F	0.99	138	49	i	101	-1.4	1
65	Cc1nn(-c2ccc(F)cc2)c(Cl)c1/C=C1\C(=O)Nc2ccccc21	0.79	126	-206	i	98	-0.2	-5
66	CCCCn1c(=O)n(C)c(=O)c2c(C(F)(F)F)cc(-c3ccncc3)nc21	0.97	59	7	i	99	-0.9	-3
67	C[n+]1cccc2cccc([O-])c21	1.4	nt	nt	i	89	nt	nt
68	O=C(O)C1CC(O)CN1c1nc(Cl)ccc1[N+](=O)[O-] (centres undefined)	1	115	10	i	99	nt	-1
69	NS(=O)(=O)c1cnccc1Nc1ccc(Cl)c(Cl)c1	1	88	-42	i	99	0.2	7
70	NCCCC[C@H]1CNC(=S)N1CCCCC1CCCCC1	0.67	nt	nt	i	95	nt	-2
71	COCCOc1cc2ncnc(N3CCC(C(=O)O)CC3)c2cc1OCCOC	1	nt	nt	i	82	nt	nt
72	CC(Oc1ccc(Cl)cc1)C(=O)N/N=C/c1ccsc1 (centres undefined)	0.93	112	-23	i	105	-1.0	-4
73	CCCCOc1ccc(C2NC(=O)NC(C)=C2C(C)=O)cc1OCC (centres undefined)	1	92	41	i	100	nt	9
74	O=C(O)c1ccc(-c2ccc(/C=C3\NC(=O)N(Cc4ccc(Cl)cc4)C3=O)o2)cc1Cl	1.3	nt	nt	i	97	nt	-5
75	Cc1cccc(-n2cc(CNCCN3CCOC3=O)c(-c3cccc(F)c3)n2)c1	1.1	nt	nt	i	99	nt	4
76	CCS(=O)(=O)n1nc(-c2ccccc2)cc1N	0.85	nt	nt	i	75	-1.4	-3
77	Cc1ccc(C)c(CN2C(=O)C3(OCCCO3)c3ccccc32)c1	0.95	nt	nt	i	101	-3.0	-1
78	O=C(OCc1nnn(Cc2ccccc2)c1-c1c(COC(=O)c2ccccc2)nnn1Cc1ccccc1)c1ccccc1	0.68	nt	nt	i	102	nt	nt
79	COc1cccc(-c2nc(N3CCN(c4ccccc4)CC3)c3ccccc3n2)c1O	0.88	123	13	i	100	-2.5	5

# From PubChem

# Rows were taken by chance. Share with any hit: about 1.1%.
